# High-throughput results from PubChem BioAssay.
# Vif TR-FRET: HIV-1 Vif–A3G interaction blockers – biochemical, TR-FRET, GST-Vif 1-94, biotin-A3G peptide, dose response retest, primary screen (AID 1117319) | TR-FRET GST-Vif / biotin-A3G peptide binding; higher % means a stronger effect; test concentration not given here; strong numbers were not always called active | inhibition, %, or IC50 in µM where a hit was titrated | hit rate 0.57% among 260,000;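 active means above the screen mean plus three standard deviations and confirmed in dose response; inconclusive means results disagree or hit not tested in dose response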;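 further: Vif residues 1-94 fused to GST binding biotinylated APOBEC3G peptide 110-148; 0% = full assay without inhibitor and 100% = GST in place of GST-Vif; retest series ran down from 100 µM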
# Beta cell apopt: beta cell apoptosis inhibition; INS-1E cytokine-induced death, ATP luminescence, 48 h; percent of positive-control rescue, neutral wells zero; protection from apoptosis, % (test concentration not listed); hit rate 0.8% among 300,000; AID 435005;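 active means all replicates at 75% or more, or half of them and the mean; inconclusive means half reach 75% but not the mean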;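 further: 0% = cytokine-treated negative control wells and 100% = positive control rescue; higher means more ATP so stronger rescue from cytokine killing; wells of about 40 µL received 100 nL stock; the first replicate is given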
# LANA-H2B inh: blocks KSHV LANA binding to histone H2A/H2B | cell-free LANA-H2A/H2B peptide, fluorescence polarization | inhibition, % (test concentration not listed) | AID 2629 | hit rate 0.6% among 320,000 | Q9QR71; in the data active means inhibition mostly above about 10%, no sharp cut-off; inactive means mostly below about 6.7%;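 further: stock transfer was 7.5 nL into about 10 µL; 0% = median of vehicle wells and 100% = median of positive control wells; one replicate is shown; the record names a cut of 25% in any replicate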
# MLL AF4-AF9 inh: inhibitors of human MLL-AF4/AF9 interaction | P42568 | AID 651704 | hit rate 0.47% among 350,000 | AlphaScreen, biotin-AF4 peptide binding to FLAG-AF9 | inhibition, % at 10 µM;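 active means every replicate reaching a set inhibition limit, whatever the replicate mean, cut at about 25% in these data; inconclusive means mean inhibition reaches that limit but some replicates miss it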;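 further: 0% = plate neutral control median and 100% = total signal loss; the record names both 10 and 1 µM as test concentration; the first replicate is given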
# Target sequence (P42568 whole entry, looked up): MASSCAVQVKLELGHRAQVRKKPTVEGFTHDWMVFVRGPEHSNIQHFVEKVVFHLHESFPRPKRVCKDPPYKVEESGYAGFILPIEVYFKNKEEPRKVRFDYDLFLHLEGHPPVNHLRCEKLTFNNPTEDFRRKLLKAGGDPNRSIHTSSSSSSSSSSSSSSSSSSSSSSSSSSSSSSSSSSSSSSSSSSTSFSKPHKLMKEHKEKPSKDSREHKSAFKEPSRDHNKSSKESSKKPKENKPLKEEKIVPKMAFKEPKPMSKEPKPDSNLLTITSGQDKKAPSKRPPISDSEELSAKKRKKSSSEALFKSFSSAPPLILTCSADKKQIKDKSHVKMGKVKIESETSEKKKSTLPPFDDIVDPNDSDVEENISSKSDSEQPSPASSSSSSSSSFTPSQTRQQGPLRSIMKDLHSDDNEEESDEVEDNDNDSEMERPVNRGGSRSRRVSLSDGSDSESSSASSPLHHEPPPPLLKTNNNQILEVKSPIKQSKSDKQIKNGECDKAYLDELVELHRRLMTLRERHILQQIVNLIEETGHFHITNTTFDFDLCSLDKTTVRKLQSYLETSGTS
# T cruzi inh: T. cruzi replication inhibition; hit rate 1.4% among 300,000; inhibition, % (test concentration not listed); T. cruzi beta-gal in NIH3T3, luminescence, 90 h;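 active means mean inhibition across valid replicates above about 55%, limit read from the data; inconclusive means mean below that limit but half or more replicates reach it; inactive means mean below it, under half of replicates reach it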;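 further: signal also drops with host cell toxicity which is not excluded here; 0% = plate median of DMSO wells and 100% = zero luminescence signal; higher percent means less beta-gal luminescence so fewer parasites; stock transfer was 50 nL into about 50 µL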
# RanGTP-Impb inh: disruptors of Ran-importin-beta complex formation – biochemical, FRET, CFP-Ran, YFP-importin-beta, homogeneous, primary screen; AID 2216; inhibition, % (test concentration not listed); cell-free CFP-Ran/YFP-importin-beta FRET ratio; hit rate 1.1% among 300,000;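 active means most replicates above 15%; inconclusive means exactly half above 15%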;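 further: 0% = DMSO wells and 100% = Ran loaded with GDP instead of GTP; wells of about 40 µL received 100 nL stock; the first replicate is given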
# Bfl-1 A1 inh: inhibitors of the anti-apoptotic protein A1, read as caspase activation | AID 2462 | caspase activation, % (concentration not given with the values) | MEF A1-2A-BIM cells, Caspase-Glo 3/7 luminescence, 3 h; percent of clofoctol response, vehicle zero | hit rate 0.066% among 330,000;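 active means over half of replicate activation scores above 10%, or exactly half above 10 with the replicate mean above 10; inconclusive means replicate mean below 10 yet half the replicates above 10; inactive means over half of replicates below 10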;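 further: wells of about 30 µL received 50 nL stock; many hits fall short of the cut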
# Calb FLC: C. albicans growth modulation with fluconazole. hit rate 0.57% among 300,000. C. albicans CaCi-2 (fluconazole-resistant clinical isolate) + fluconazole, Alamar Blue growth, 48 h. AID 1979. growth inhibition, % (test concentration not listed);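 active means most replicates above 75%; inconclusive means exactly half above 75%; inactive means most below 75%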;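 further: all wells also contain fluconazole at 8 µg/ml as a sub-toxic cotreatment; 0% = median of DMSO wells and 100% = median of geldanamycin control wells; wells of about 8 µL received 7.5 nL stock; the first replicate is given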
# An asterisk follows results filed as active; u = inconclusive; x = no result given; & = joins results of further samples.
# Below each compound – Calb FLC, LANA-H2B inh, Beta cell apopt, Vif TR-FRET, RanGTP-Impb inh, MLL AF4-AF9 inh, Bfl-1 A1 inh, T cruzi inh
O/N=C/c1ccnc(SCc2ccccc2)n1
    5, 0.0, x, -1%, 1.2, x, -2.7, x
COc1ccc(/C=c2\s/c(=C\C(=O)C(C)(C)C)[nH]c2=O)cc1O
    -4, -1.2, -2, 16%, u, u, 0.2, 7
CCCC(=O)N1CCC(O)(c2cccc(F)c2)CC1
    6, -4.9, -4, -4%, -1.1, 0.4, 0.2, -11
COc1ccc(NC(=O)c2cccc(S(=O)(=O)N3CCc4ccccc43)c2)cn1
    28, 1.3, x, -7%, 1.4, -3.2, 0.1, 26
COC(=O)c1ccc(N2CCN(C(=O)C3CC3)CC2)c([N+](=O)[O-])c1
    0, 4.5, -1, x, 2.6, 1.6, 0.9, 3
O=C(Nc1cccn2ncnc12)c1ccc(Cl)cc1
    2, -1.4, -5, -4%, -0.2, x, 1.8, 7
N#Cc1cnc(SCC(=O)c2ccccc2)nc1N
    -10, -8.7, 7, 0%, 0.6, x, -0.8, 3
COc1ccc(CNc2ncc(-c3ccc(Br)cc3)n2C)cc1OC
    -7, x, x, x, 3.8, 15, x, 17
O=C(NCc1ccccc1)c1cccc(COc2ccc(Cl)cc2)c1
    -8, 4.6, 9, -9%, 6.0, x, -3.3, 5
N#C/C(=C\c1cc([N+](=O)[O-])ccc1Cl)C(N)=O
    -6, 4.5, -3, 5%, 2.5, -1.4, 2.1, -6
C[C@H]1CCC(=O)N([C@H](CN=[N+]=[N-])Cc2ccccc2)CC1
    1, 0.0, 0, x, 0.5, -0.5, 0.2, -9
CN1CCN(NC(=S)NC(C)(C)CC(C)(C)C)CC1
    -36, -1.6, -7, -4%, x, -2.0, 0.0, 37
COc1cc(C(=O)Nc2cc(Cl)ccc2-n2cncn2)ccc1OC(F)F
    4, 4.6, 1, -13%, u, -1.7, 0.7, -1
Cc1ccc2c(Cl)cc(Cl)c(OCC(=O)NC(=O)NCc3ccco3)c2n1
    2, -2.4, 6, -1%, -1.3, x, -0.3, -10
COCCN(Cc1cn(C)nc1-c1ccccc1F)C(C)C
    7, 3.4, -5, 7%, 10, -0.9, 0.1, -8
Cc1ccccc1CSc1nnc(-c2cccs2)n1Cc1ccco1
    25, -5.6, -2, 4%, -3.3, x, 0.0, 27
CCC(=O)N1CCN(c2ccccc2NC(=O)c2ccc(-c3cccc([N+](=O)[O-])c3)o2)CC1
    x, -4.8, 4, 11%, x, 1.2, 0.4, 22
Cc1ccc(-c2csc3ncnc(N4CCN(C(=O)c5ccccc5)CC4)c23)cc1
    5, -2.2, 13, 10%, 0.9, x, -0.8, 49
Cn1cc(CCC(=O)NCc2ccc3c(c2)OCO3)c2ccccc21
    -3, -0.5, 0, -2%, 3.6, 4.5, 1.9, -7
O=C(N/N=C/c1ccoc1)c1ccc(Cl)cc1Cl
    5, -2.6, -7, x, -3.2, -7.7, 0.5, -4
CCOC(=O)c1cn(CC)c2cc(N3CCSCC3)c(F)cc2c1=O
    9, 5.6, 1, 1%, 1.5, x, 2.0, -1
CC(NCCN(C)C)C(=O)C12CC3CC(CC(C3)C1)C2 (stereo not drawn)
    0, 0.6, -2, -1%, -1.5, -1.8, 0.3, 32
CC1=NN(CCc2ccccn2)C(=O)CC1
    -3, 1.6, 1, x, 9.3, 2.6, -0.6, -5
CCOc1ccccc1NC(=O)C(OC(=O)c1ccc(NC(=O)CC#N)cc1)c1ccccc1 (stereo not drawn)
    6, -0.4, -5, 0%, 1.0, 5.1, 0.2, -8
CC(OC(=O)c1ccc(O)cc1)C(=O)Nc1nc(-c2ccccc2)cs1 (stereo not drawn)
    x, 3.4, -6, x, x, -1.0, 0.2, x
O=S(=O)(CCN(CCS(=O)(=O)C(F)(F)F)CC1CCCO1)C(F)(F)F (stereo not drawn)
    -2, 2.9, -7, 0%, 0.8, x, -0.6, -3
Cc1nc2scc(C)n2c(=O)c1S(=O)(=O)N1CCN(c2ccc([N+](=O)[O-])cc2)CC1
    -10, 2.9, x, 4%, 5.1, 1.7, -0.1, -9
OCCN(CCO)c1ncnc2c1sc1nc(N3CCOCC3)c3c(c12)CCCC3
    39, -1.3, 11, 3%, 1.1, x, -0.5, 37
CN1CCc2nc3ccccc3c(C(=O)OCC(=O)N(CCC#N)c3ccccc3)c2C1
    10, -3.6, 2, -5%, 3.5, 1.6, 0.6, 14
O=C(COC(=O)c1cc(=O)c2ccccc2o1)Nc1cc(Cl)ccc1Cl
    x, -0.9, -2, 3%, x, -1.1, 0.5, x
Fc1cc2ncn(Cc3ccccc3)c2cc1F
    15, 2.1, -7, 3%, 1.7, x, 0.4, -2
COC(=O)[C@H](Cc1c[nH]c2ccccc12)NC(=O)NCc1ccccc1
    -5, 3.6, -5, -5%, -0.2, -1.1, u, -7
COc1ccccc1Nc1nc2cc(C)ccc2cc1C#N
    4, 0.0, -4, -18%, -0.1, -1.3, -0.1, 4
CCOC(=O)c1c(NC(=S)Nc2ccccc2)sc2c1CCN(CC)C2
    -2, -14, -6, u, 62*, x, -0.8, 1
N#Cc1ccsc1NC(=O)CSc1ncnc2ccccc12
    3, -0.8, -6, 8%, 2.9, x, -0.3, -1
Cc1nn(-c2ccccc2)c(Cl)c1/C=N/Nc1ccc(S(=O)(=O)Nc2ccccc2C(=O)O)cc1[N+](=O)[O-]
    63, 3.7, -1, 4%&33%, -1.6, x, -0.4, -15
COc1ccc(CNC(=O)c2nn(C)c3c2CS(=O)(=O)c2ccccc2-3)cc1
    8, 0.4, 0, x, -0.4, 0.7, 0.3, 4
NC(=O)c1cc(Cl)ccc1OCC(=O)NC1CC1
    x, 1.4, -2, 13%, x, -1.4, 1.3, x
CC(=O)OC1OCCOC1NC(=S)Nc1cccc(C(F)(F)F)c1 (stereo not drawn)
    -9, 4.5, 2, -10%, -1.2, 1.8, -0.4, 6
CC(=O)NC12CC3CC(C1)CC(C(=O)N(C)CC(=O)Nc1ccccc1Cl)(C3)C2
    4, -0.2, 2, -2%, u, 0.1, 0.5, -6

# Three entries already listed, sorted by the number in RanGTP-Impb inh, largest number first:
structure	RanGTP-Impb inh
COCCN(Cc1cn(C)nc1-c1ccccc1F)C(C)C	10
COC(=O)[C@H](Cc1c[nH]c2ccccc12)NC(=O)NCc1ccccc1	-0.2
Cc1ccc2c(Cl)cc(Cl)c(OCC(=O)NC(=O)NCc3ccco3)c2n1	-1.3

# The listing continues:
# Below each compound – Calb FLC, LANA-H2B inh, Beta cell apopt, Vif TR-FRET, RanGTP-Impb inh, MLL AF4-AF9 inh, Bfl-1 A1 inh, T cruzi inh
CCCOc1ccc(C(=O)Nc2ccc(N(C)C)cc2)cc1
    -29, 4.3, 4, 3%, 2.3, x, -3.6, -5
COCC(=O)N1CCC(Oc2ccc(C(=O)NC(C)c3nccs3)cc2)CC1 (stereo not drawn)
    -6, 2.7, -3, -1%, 2.5, -0.1, 0.2, -16
CC(Nc1nc(-c2ccc(F)cc2)cs1)c1nc2cc(C(F)(F)F)ccc2n1CCOCCO (stereo not drawn)
    -9, -1.6, -3, x, -1.6, -1.6, 0.6, -22
COC(=O)c1cn(CC(=O)N2CCCCC2C)c2ccccc12 (stereo not drawn)
    -7, 5.9, 0, -6%, 0.9, x, -0.5, 2
Cc1ccc(N(C)C(=O)N2CCN(S(=O)(=O)c3c(C)cc(C)cc3C)CC2)cc1
    8, -0.2, 1, -4%, 0.7, x, 0.5, 17
CCC1(c2ccccc2)NC(=O)N(CC(=O)NCc2ccc(C)cc2)C1=O (stereo not drawn)
    2, 4.8, -5, x, -2.3, -1.2, -0.8, -18
CC(=O)c1cc2c(cc1NS(=O)(=O)c1cccc(C(=O)O)c1)OCO2
    21, 3.0, -3, x, u, 0.0, -0.3, 0
O=C(NNC(=O)c1cccnc1)Nc1cccc2ccccc12
    -1, 2.3, 1, -6%, 1.4, x, 0.5, -10
O=C(Nc1ccccc1C(=O)N1CCOCC1)C1CC(=O)N(C2CCCC2)C1 (stereo not drawn)
    40, 0.3, 10, -4%, 1.9, x, -0.3, -13
CCC1CCCCN1C(=O)CSc1nc(N)cc(N)n1 (stereo not drawn)
    4, -0.1, -2, 1%, 2.2, -1.5, -0.2, -14
CCCCCN1CC(=O)N2Cc3[nH]c4ccccc4c3C[C@H]2C1=O
    10, 3.6, 2, -3%, 6.8, 6.1, 0.5, -5
Nc1nc(C(c2ccccc2)c2ccccc2)cs1
    -6, -2.2, -6, x, -3.1, 1.3, 0.4, -7
COc1ccc(C(=O)Nc2ccccc2C(=O)Nc2ccccc2C(=O)O)cc1
    81*, 11, 8, x, 1.1, 1.2, -2.0, 5
Cc1oc(-c2ccccc2)nc1C(=O)OCC(=O)NCc1ccc(Cl)cc1
    x, -5.2, 1, 3%, x, -7.1, 0.7, x
Cc1nn(C)c(C(=O)NCc2ccc(Cl)cc2)c1Cl
    0, 2.7, u, 0%, 0.4, x, -0.8, -51
Cc1nn(C)cc1C(C(=O)NC1CCCCC1)N(Cc1ccccc1Cl)C(=O)c1cnccn1 (stereo not drawn)
    78*, 3.2, -4, x, 1.9, -2.7, 0.4, 7
COc1ccc(C(=O)C2CCCN(Cc3cccn3-c3nccs3)C2)cc1OC (stereo not drawn)
    1, -6.8, 12, u, -3.9, 4.9, 0.2, -5
O=C(OCc1ccc(-c2ccccc2)cc1)c1cccc(O)c1
    0, 2.4, 2, x, 3.2, -2.9, 0.1, 16
COc1ccc(/C=C2/SC(=S)N(n3c(C)ccc3C)C2=O)cc1
    -6, 1.4, 3, -6%, -4.7, x, 0.8, 6
Cc1ccc(C)c(NC(=O)CSc2nccn2Cc2ccco2)c1
    -6, -0.5, -3, x, 2.5, 3.3, -0.6, 0
CCOc1cc(NC(=S)NCC2CCCO2)c(OCC)cc1NC(=O)c1ccccc1C (stereo not drawn)
    24, -1.9, 1, -2%, -2.3, x, 0.6, 13
CC(C)N(Cc1ccccc1)C(=O)CN1C(=O)COc2ccc(S(=O)(=O)NC3CCCC3)cc21
    -1, 1.3, -2, -3%, 0.2, -2.9, -0.3, -17
Cc1cc(C(=O)Nc2ccc(F)cc2F)on1
    -1, -0.6, x, -4%, 0.6, -2.3, 0.2, -9
Cc1cc2c(SCC(=O)NC3CCCCC3)ncnc2s1
    -2, 5.9, -6, x, -3.3, -4.9, 0.1, 3
COc1ccc(C(=O)N2CCN(Cc3ccccn3)CC2)cc1
    x, 0.7, -8, 1%, 3.6, 1.8, 0.1, -7
CN(CC(=O)N(C)CC(=O)Nc1c(Cl)cccc1Cl)Cc1ccccc1F
    x, -4.4, -1, x, x, -0.3, -0.8, x
CCOC(=O)c1ccc(NC(=S)Nc2ccccn2)cc1
    31, -4.6, 5, 17%, -3.2, x, 0.0, -10
Cc1c(C)c2cc(Cl)c(OCC(=O)NC3CC(C)(C)NC(C)(C)C3)cc2oc1=O
    4, 3.0, x, x, 1.9, 0.9, 0.0, 21
Cc1c(C(=O)N2CCN(c3ccccn3)CC2)sc2ncnc(N3CCOCC3)c12
    5, 0.3, -4, -1%, 1.6, -1.0, 0.3, 9
